# Rango complex inh: prevents formation of the Rango-importin beta complex. Q14974. Rango CFP/YFP FRET sensor + importin beta, 45 min. Potency, µM (series often up to 92.2 µM), without a hit: top-dose inhibition of complex formation. 340,000 compounds, 0.031% hits; active = rising FRET ratio curve, often small or poorly fitted; inconclusive = mostly compound fluorescence or quenching in the first reads; inactive = flat curves in all reads;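 also: potency is read from the fitted curve at half-maximal effect; 0% = DMSO wells and 100% = buffer wells lacking importin beta; nearly all actives have a fitted effect of over 15% in size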
# Target sequence (Q14974 whole entry, looked up): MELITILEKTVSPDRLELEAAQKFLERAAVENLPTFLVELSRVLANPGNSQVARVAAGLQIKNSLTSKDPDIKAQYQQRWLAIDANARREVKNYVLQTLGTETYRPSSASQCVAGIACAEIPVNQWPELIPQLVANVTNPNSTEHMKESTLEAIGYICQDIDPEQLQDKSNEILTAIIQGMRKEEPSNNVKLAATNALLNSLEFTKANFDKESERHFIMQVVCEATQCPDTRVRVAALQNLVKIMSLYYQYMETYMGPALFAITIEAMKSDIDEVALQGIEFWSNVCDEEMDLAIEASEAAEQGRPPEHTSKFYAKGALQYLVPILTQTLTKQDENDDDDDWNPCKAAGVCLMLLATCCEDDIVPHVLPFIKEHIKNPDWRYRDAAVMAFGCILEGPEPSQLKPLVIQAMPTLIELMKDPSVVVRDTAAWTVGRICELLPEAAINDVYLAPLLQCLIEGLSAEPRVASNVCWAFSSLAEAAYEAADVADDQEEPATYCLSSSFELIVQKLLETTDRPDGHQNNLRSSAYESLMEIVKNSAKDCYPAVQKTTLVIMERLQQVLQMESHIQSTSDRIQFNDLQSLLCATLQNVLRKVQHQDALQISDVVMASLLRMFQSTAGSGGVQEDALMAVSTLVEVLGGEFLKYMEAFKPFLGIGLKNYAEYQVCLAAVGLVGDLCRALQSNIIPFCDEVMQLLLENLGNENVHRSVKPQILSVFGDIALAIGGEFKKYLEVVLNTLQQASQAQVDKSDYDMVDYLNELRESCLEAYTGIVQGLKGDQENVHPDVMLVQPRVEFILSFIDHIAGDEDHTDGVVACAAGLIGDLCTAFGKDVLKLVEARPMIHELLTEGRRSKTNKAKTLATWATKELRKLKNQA
#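 FRET biosensor (snurportin 1 IBB flanked by EYFP and cerulean), 50 nM, with compound 5 min, then 0.125 microM importin beta in PBS, 1 mM DTT, 0.02% Tween-20, 0.1% BSA. CFP/YFP ratio read after 45 min at room temperature; pre-read flags interference.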
# miR-21 FLuc: raises the signal of a miR-21 reporter | 340,000 tested, under 10 active | Potency, µM (titrated, usually from 38.3 µM), for inactives: at the top dose reporter change, positive = more light | HeLa miR-21 FLuc reporter, luciferase, 48 h; active = well fitted rising curve with a large enough effect; inconclusive = small, poorly fitted or top-dose-only effect; inactive = no such curve, though single readings can be large or run the other way;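 also: % of control where 0% means no effect; miR-21 action dims this reporter so a rising signal means less miR-21 action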
#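 Compounds were titrated across several concentrations (up to approximately 40 uM) and incubated 48 hours with HeLa miR-21-FLuc reporter cells (miR-21 target sequence downstream of FLuc, endogenous miR-21). Readout was firefly luciferase luminescence after lytic detection reagent.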
# GLA inh pH 4.5: blocks human alpha-galactosidase A at pH 4.5; AID 1467; purified enzyme, 4-MU-alpha-Gal fluorescence, pH 4.5; 230,000 tested, under 10 active; activity change, negative = inhibition, % at 105 µM; P06280; inconclusive = small, poorly fitted or top-dose-only inhibition, or a rising curve; inactive = flat fitted curve, though single readings scatter; no compound was filed as active;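 also: 0% = full activity with enzyme and -100% = basal without enzyme; dose as in the result columns while the protocol names 77 µM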
# Rango release inh: inhibitors of RanGTP-induced Rango-importin beta complex dissociation. Biochemical FRET Rango-importin beta, RanGTP-induced dissociation. Potency, µM (doses to about 46.1 µM), without a hit: at the top dose activity change, negative = inhibition. 340,000 compounds, 0.071% hits. AID 540253. O95149+P62826; active means falling FRET ratio curve, often poorly fitted, with flat reads before Ran was added; inconclusive means other falling curves, or compound fluorescence or quenching; inactive means flat or rising ratio curve;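 also: potency is read from the fitted curve at half-maximal effect; % of control where 0% means no effect; nearly all actives have a fitted effect of over 45% in size; -100% = wells without RanGTP and RCC1; the record marks most hits as doubtful in a second field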
#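 Compounds sat 5 min at room temperature with 0.1 uM Rango biosensor plus 0.25 uM importin beta, then FRET pre-read. RanGTP-RCC1 (0.6 uM Ran, 2mM GTP, 0.2 uM RCC1) added for 45 min, and the CFP/YFP post-read measured blocked complex dissociation.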
# An asterisk follows results filed as active; ? = inconclusive; · = no result given; & = joins results of further samples. Not all compounds are listed; count on the stated rates, not on these rows.
nr	Rango complex inh	miR-21 FLuc	GLA inh pH 4.5	Rango release inh	Molecule
1	1.4%	-1%	3	-4%	CC(C)CN1CCN(Cc2cc(F)ccc2-n2cccn2)CC1CCO (stereo unspecified)
2	-0.6%	-6%&3%	·	15%	Cc1ccc2[nH]cc(S(=O)(=O)c3ccc(C)c(C)c3)c(=O)c2c1
3	0.0%	-2%	7	-7%	CN(C)CCCN(C(=O)CCc1ccccc1)c1nc2c(F)cccc2s1
4	-1.0%	0%	·	-1%	O=C(O)COc1ccccc1/C=N/NC(=O)C(O)c1ccccc1 (stereo unspecified)
5	-2.5%	12%	·	5%	COc1ccc(Cc2nc3ccc(C(=O)N4CCN(C)C(C)C4)cc3o2)cc1OC (stereo unspecified)
6	?	-7%	-3	-13%	CCC(C)(C)n1nnnc1C(c1cc2ccc(OC)cc2[nH]c1=O)N1CCCCC1 (stereo unspecified)
7	?	-9%	4	-29%	Cc1cc(C)n2nc3nc(N4CCCCC4)nc(-c4ccco4)c3c2n1
8	2.8%	6%	-2	0%	O=C(O)c1cc(-c2ccc3c(c2)OCCO3)n[nH]1
9	-2.8%	0%	4	-2%	CC1(C)NC(=O)N(CC(O)CN2C(=O)NC(C)(C)C2=O)C1=O
10	-2.5%	-67%	-13	-1%	O=[N+]([O-])c1cc(C(F)(F)F)ccc1NCCOc1ccccc1
11	-2.0%	-38%	·	4%	Cc1ccc(-c2nnc(NC3CCCC3)s2)cc1
12	0.2%	·	·	1%	Cc1ccc(S(=O)(=O)CC(=O)NCc2ccc(Cl)cc2)cc1
13	-0.1%	14%	-4	13%	CCC(C)Sc1nc2c(c(=O)[nH]c(=O)n2C)n1CC(O)COc1ccccc1C (stereo unspecified)
14	3.2%	1%	2	-3%	Cc1ccc(/C=N/NC(=O)NN(C)c2ncc(C(F)(F)F)cc2Cl)cc1
15	1.5%	-10%	3	21%	O=C1c2oc3ccc(Cl)cc3c(=O)c2C(c2cccc(Br)c2)N1CCO (stereo unspecified)
16	-1.9%	-13%	·	8%	Cc1cc(C)nc(N2CCN(c3ccc(F)cc3)CC2)n1
17	-2.5%	7%	1	-17%	CCOC(=O)C1=C(C)N(C)C(=S)N(C)C1c1ccc(OC)cc1 (stereo unspecified)
18	0.3%	-4%	·	-13%	O=C(NNC(=O)C1CCC1)c1ccc(Cl)cc1
19	-0.6%	-1%	-4	-2%	COc1ccccc1CNC(=O)CC1Sc2ccccc2NC1=O (stereo unspecified)
20	5.4%	?	-11&-4&1&4	2%	CCN(CC)C(=S)SSC(=S)N(CC)CC
21	-7.0%	3%	-5	10%	CC(=O)Nc1ccc(S(=O)(=O)N(CCCN2CCOCC2)Cc2cccs2)cc1
22	-0.4%	-2%	-2	29%	O=C(C1CCCN1S(=O)(=O)c1ccc(Cl)c(Cl)c1)N1CCOCC1 (stereo unspecified)
23	-3.5%	-37%	·	7%	CN(Cc1nc(-c2ccc(Cl)cc2)no1)C(=O)c1ccco1
24	-2.2%	0%	·	1%	Cc1ccc(NC(=S)N2CCC(NC(=O)C3CCCCC3)CC2)cc1C
25	-7.2%	1%	-1	-16%	NS(=O)(=O)c1ccc(NC(=O)COC(=O)CSc2n[nH]c(-c3ccccc3)n2)cc1
26	0.8%	2%	0	0%	COCCn1c(SCc2ccc(C(=O)OC)o2)nnc1-c1c[nH]c2ccccc12
27	1.4%	15%	1	-14%	O=C(Nc1nccs1)c1cc(Cl)ccc1[N+](=O)[O-]
28	3.1%	-8%	-19	15%	Cc1ccc(-c2nn[nH]n2)cc1
29	3.3%	-37%	·	1%	CCOc1ccc(NC(=O)CCc2c(C)nn(-c3ccc(N4CCCCC4)nn3)c2C)cc1
30	4.9%	·	·	-1%	Cc1cccc(N(Cc2ccccc2)C(=O)c2cc(S(=O)(=O)N3CCOCC3)ccc2Cl)c1
31	1.5%	·	·	-12%	CNc1ccc(C(=O)OCC(=O)Nc2ccnn2C(C)C)cc1[N+](=O)[O-]
32	-0.9%	0%	-1	2%	CCOC(=O)CC(c1ccc(N)cc1)n1c(C)ccc1C (stereo unspecified)
33	1.6%	-3%	-5	1%	O=S(=O)(c1ccc(Br)s1)n1cccn1
34	-1.5%	-1%	-30	-3%	O=C(Nc1ncc2c(n1)-c1ccccc1OC2)c1cccc([N+](=O)[O-])c1
35	-0.4%	·	·	17%	CC(C)(C)OC(=O)N1CCC(NC(=O)c2nc[nH]c2C(=O)N2CCN(C(=O)OC(C)(C)C)CC2)CC1
36	1.2%	-30%	3	0%	Cc1c(C(=O)Nc2ccccc2)csc1-c1ccccc1
37	-5.0%	-52%	5	-2%	CCN(CC)C(=O)c1ccc2nc3ccccc3nc2c1
38	0.5%	3%	·	3%	COc1ccc2[nH]c3c(c2c1)CCN1C(=O)N([C@@H](C)C(=O)NCc2ccc(F)cc2)C(=O)[C@]31C
39	0.3%	0%	·	6%	Cc1ccc(NC(=O)CCN2C(=O)C3C4CCC(C4)C3C2=O)cc1[N+](=O)[O-] (stereo unspecified)
40	5.3%	0%	·	-1%	CC(Oc1ccc(Cl)cc1Cl)C(=O)NNC(=O)[C@@H]1CCCC[C@@H]1C(=O)O (stereo partly specified)
41	4.2%	11%&14%	-9	9%	COc1ccc(-n2c(=O)c3c(C)c(C)sc3n(Cc3ccc(F)cc3)c2=O)c(OC)c1
42	0.6%	-14%	·	3%	Cc1nc(NC(=O)CSc2nnc(C3CC3)n2C)sc1C
43	-2.0%	4%	-9	-4%	OC1(c2ccccc2)CCN(Cc2ccccc2)C2CCCCC21 (stereo unspecified)
44	-0.1%	-1%	·	0%	CN1C(=O)CSC1=Nc1ccc(F)cc1
45	-3.1%	-3%	7	-12%	COC(=O)CON1C(=O)c2ccccc2C1=O
46	0.1%	·	·	-5%	Cn1nnnc1SCC(=O)Nc1nc2c(F)c(F)c(F)cc2s1
47	1.9%	-23%	·	1%	CC(=O)n1c2ccccc2c2nc3ccccc3nc21
48	5.9%	3%	-13	16%	COc1cc(OC)cc(C(=O)N[C@H](C(=O)OCC(=O)Nc2cccc(F)c2)C(C)C)c1
49	-1.9%	0%	·	10%	Cc1ccc(C)c(S(=O)(=O)N2CCN(C(=O)c3ccc(N4CCCC4)c([N+](=O)[O-])c3)CC2)c1
50	?	-106%	·	?	CN(C)c1ccc(-c2ccc3c(=O)c4ccccc4n(C)c3c2)cn1

# Next entries
nr	Rango complex inh	miR-21 FLuc	GLA inh pH 4.5	Rango release inh	Molecule
51	1.1%	-5%	·	14%	COc1ccc(/C=C(\NC(=O)c2ccc(C)cc2)C(=O)N2CCCCC2)cc1
52	-4.0%	2%	-4	-11%	Cc1occc1-c1nnc(SCC(=O)Nc2ccccc2-c2ccccc2)n1C
53	3.5%	16%	-22	-9%	CN(CC(O)Cn1c2ccccc2c2ccccc21)S(C)(=O)=O (stereo unspecified)
54	·	-11%	-8	·	COc1cccc(-c2cc(C(=O)Nc3ccc4c(c3)OCCO4)c3ccccc3n2)c1
55	-1.7%	-16%	-3	-14%	O=C(COc1ccccc1C(=O)NCc1ccccn1)Nc1ccc(Br)cc1
56	6.7%	·	·	8%	CS(=O)(=O)c1ccccc1-c1nnc(NC(=O)C2=COCCO2)o1
57	2.3%	-5%	2	-1%	COc1ccc(CC(=O)N2CC(C)CC(C)C2)cc1 (stereo unspecified)
58	7.8%	-3%	·	-29%	COc1ccc(/C=C2\SC(=S)N(CCC(=O)Nc3ccc(C(=O)O)cc3)C2=O)cc1
59	-1.4%	-17%	8	5%	CCC(=O)Nc1cccc(-n2nnnc2SCC(=O)c2ccc(C)c(C)c2)c1
60	-4.0%	·	·	10%	O=C(CSc1nc2nn(-c3ccccc3)c(=O)c-2c2n1CCCCC2)Nc1ccccc1[N+](=O)[O-]

# From entry 51 to 53, copied from above:
nr	Rango complex inh	miR-21 FLuc	GLA inh pH 4.5	Rango release inh	Molecule
51	1.1%	-5%	·	14%	COc1ccc(/C=C(\NC(=O)c2ccc(C)cc2)C(=O)N2CCCCC2)cc1
52	-4.0%	2%	-4	-11%	Cc1occc1-c1nnc(SCC(=O)Nc2ccccc2-c2ccccc2)n1C
53	3.5%	16%	-22	-9%	CN(CC(O)Cn1c2ccccc2c2ccccc21)S(C)(=O)=O (stereo unspecified)

# Next section
nr	Rango complex inh	miR-21 FLuc	GLA inh pH 4.5	Rango release inh	Molecule
61	0.1%	-5%	·	6%	CCNC(=S)N(CCCN(C)C)Cc1cc2cc3c(cc2[nH]c1=O)OCCO3
62	-0.3%	·	·	17%	O=S1(=O)CCOC[C@H](Cc2ccccc2)N1Cc1ccccc1F
63	7.1%	8%	·	3%	CC(C)CC(=O)NC(c1ccccc1)c1c(O)ccc2ccccc12 (stereo unspecified)
64	?	-8%	-6	-20%	Cc1cccc(C(=O)NN2C(=O)C3C(c4ccccc4)C=CC(c4ccccc4)C3C2=O)c1 (stereo unspecified)
65	0.7%	-1%	·	-1%	CC(OC(=O)c1ccccc1CCc1ccccc1)C(N)=O (stereo unspecified)
66	-5.7%	-1%	6	1%	O=C(Nc1nnc(C2CC2)s1)C1CC(=O)N(c2ccc3c(c2)OCCO3)C1 (stereo unspecified)
67	-4.0%	·	·	0%	O=C1NC(=O)C2(CCCC2)N1
68	5.3%	3%	·	-7%	COc1ccc(S(=O)(=O)N2CCC(C(=O)Nc3ccccc3N3CCCC3)CC2)cc1OC
69	-1.4%	-12%	5	-8%	CC1=CC(C2CC(=O)N(c3ccccc3C)C2=O)CC2C(=O)N(c3ccccc3C)C(=O)C12 (stereo unspecified)
70	5.1%	-4%	4	6%	COc1ccc(CNC(=S)NCc2ccc(OC(C)C)cc2)cc1
71	2.3%	·	·	-4%	CC(=O)Nc1ccc(NC(=O)CN2C(=O)NC3(CCCCCCC3)C2=O)cc1
72	0.5%	-16%	-3	-2%	Cc1nc(N2CCOCC2)c2c3c(sc2n1)CCC3

# Structural class, the entries above with an NH in an aromatic ring.
nr	Rango complex inh	miR-21 FLuc	GLA inh pH 4.5	Rango release inh	Molecule
2	-0.6%	-6%&3%	·	15%	Cc1ccc2[nH]cc(S(=O)(=O)c3ccc(C)c(C)c3)c(=O)c2c1
6	?	-7%	-3	-13%	CCC(C)(C)n1nnnc1C(c1cc2ccc(OC)cc2[nH]c1=O)N1CCCCC1 (stereo unspecified)
8	2.8%	6%	-2	0%	O=C(O)c1cc(-c2ccc3c(c2)OCCO3)n[nH]1
13	-0.1%	14%	-4	13%	CCC(C)Sc1nc2c(c(=O)[nH]c(=O)n2C)n1CC(O)COc1ccccc1C (stereo unspecified)
25	-7.2%	1%	-1	-16%	NS(=O)(=O)c1ccc(NC(=O)COC(=O)CSc2n[nH]c(-c3ccccc3)n2)cc1
26	0.8%	2%	0	0%	COCCn1c(SCc2ccc(C(=O)OC)o2)nnc1-c1c[nH]c2ccccc12
28	3.1%	-8%	-19	15%	Cc1ccc(-c2nn[nH]n2)cc1
35	-0.4%	·	·	17%	CC(C)(C)OC(=O)N1CCC(NC(=O)c2nc[nH]c2C(=O)N2CCN(C(=O)OC(C)(C)C)CC2)CC1
38	0.5%	3%	·	3%	COc1ccc2[nH]c3c(c2c1)CCN1C(=O)N([C@@H](C)C(=O)NCc2ccc(F)cc2)C(=O)[C@]31C
61	0.1%	-5%	·	6%	CCNC(=S)N(CCCN(C)C)Cc1cc2cc3c(cc2[nH]c1=O)OCCO3

# Assay outcomes from PubChem BioAssay.
